Cneo AK release = causes C. neoformans cell lysis. adenylate kinase release luminescence, 4 h; normalised: neutral wells 0, clomiphene wells 100. lysis activity, % at 15 µM. hit rate 0.2% among 360,000. AID 651654;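 active = mean lysis activity across replicates of at least 80%, whatever share of replicates individually reach that level; inactive = mean lysis activity below 80%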
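Test system: log-phase Cryptococcus neoformans yeast cells. Input: 5 × 10^6 yeast cells/mL. Medium: fresh YPD growth medium. Doses: single dose. Incubation: static 4 h at 37 °C with compound, 1 h detection. Measured by: luminescent adenylate kinase detection reagent. Read-out: signal increase indicating cell lysis. Benchmarks: Clomiphene.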
PglD inh = blocks C. jejuni PglD acetyltransferase activity; AID 602405; inhibition, % at 12.5 µM; hit rate 0.098% among 360,000; purified PglD enzyme, DTNB colorimetric CoA detection; in the data active = inhibition above about 16%, passing the limit was not always enough; also: strong numbers were not always called active
LGR2 antag = blocks bursicon-induced cAMP signaling via Drosophila LGR2 | HEK293 LGR2, CRE-luciferase, bursicon-stimulated, 4 h | hit rate 0.35% among 380,000 | inhibition, % at 9.99 µM;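 active = drop in luminescence signal, shown as inhibition above about 50% in the replicate tests, limit read from the data, passing the limit was not always enough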;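 also: agonist challenge used bursicon conditioned medium at about half maximal strength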
C2C12 statin = protects C2C12 myotubes from simvastatin toxicity; ATP luminescence, 48 h; scaled: DMSO 0, geranylgeraniol control 100; rescue of ATP level, % at 7.49 µM; hit rate 0.78% among 330,000; AID 602340;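 active = mean ATP rescue above about 67%, or every replicate alone reaching that limit, limit read from the data, passing the limit was not always enough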;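 also: myotubes were challenged with 10 µM simvastatin during compound exposure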
PAX8 inh HTS = lowers PAX8-driven luciferase in RMG-I cells; RMG-I TPO-luciferase reporter, SteadyGlo, 24 h; inhibition, % at 12.6 µM; hit rate 1.2% among 360,000;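 active = mean replicate inhibition at least 60% with every replicate also reaching 60%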;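 also: luciferase light reporting Pax8 driven TPO promoter activity; plate controls were median of neutral control wells for no effect and mitoxantrone controls for full effect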
PGC1a acetyl inh = lowers PGC1a acetylation signal in U2OS cells; AlphaScreen anti-acetyl-lysine; with virally co-expressed GCN5 acetyltransferase; inhibition, % at 15.6 µM; hit rate 0.17% among 350,000; AID 651687;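 active = every replicate shows inhibition of at least 40%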;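 also: 0% = neutral control wells and 100% = positive control wells; some results beyond the cut were filed as inactive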
INS-1E GSIS act = primary screen for activators of insulin secretion dependent on glucose, INS-1E cells, GLuc reporter luminescence. hit rate 0.61% among 370,000. INS-1E GLuc reporter insulin secretion, 2-3 h. activation, % at 16.6 µM;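 active = lowest replicate activation of at least 40%, so every replicate reaches that level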;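 also: 0% = median of neutral control wells and 100% = median of IBMX positive control wells; some compounds called inactive have numbers as strong as hits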
The depositor's hits bear a star; nt = not tested or not shown; & = joins results of further samples.

SMILES	Cneo AK release	PglD inh	LGR2 antag	C2C12 statin	PAX8 inh HTS	PGC1a acetyl inh	INS-1E GSIS act
CCCCC(=O)OCC(=O)c1ccc(OCC)cc1	0	-4	nt	-9	nt	1	nt
Nc1c(C(=O)CSc2n[nH]c(-c3ccccc3Br)n2)c(=O)[nH]c(=O)n1C1CC1	4	2	6	-6	-46	-4	3
C/C(=N/NC(=O)c1ccoc1C)C12CC3CC(CC(C3)C1)C2	-1	2	nt	4	nt	7	nt
C[C@@H]1CCCCO[C@@H](CN(C)C(=O)c2ccncc2)[C@@H](C)CN([C@H](C)CO)C(=O)c2cc(NC(=O)Cc3ccccc3)ccc2O1	0&0	-1&-1	6&7	-9&-10	-18&-19	6	0&27
COc1ccccc1NC(=O)C1=C(C)Nc2nnnn2C1c1cccc(Br)c1 (centres undefined)	1	-9	nt	9	nt	9	nt
CN(C1CCCCC1)S(=O)(=O)c1cccc(C(=O)Nc2ccccn2)c1	0	1	-25	-8	-3	1	-20
CS(=O)(=O)c1ccc(C(=O)OCC(=O)NC(=O)Cc2ccccc2)cc1	nt	4	6	-11	-9	-2	11
Cc1cc(C)c2sc(N(CCCN(C)C)C(=O)c3ccc(Br)s3)nc2c1	8	2	11	7	17	-15	-19
O=C(Nc1ccccc1)N1CCCCN2[C@@H](CO)[C@@H](c3ccc(C#CC4CC4)cc3)[C@@H]2C1	4	8	-2	nt	-3	-10	-14
CN(C)c1oc(/C=C/c2ccccc2)nc1C#N	nt	nt	-20	nt	-86	nt	-3
O=C(CN1C(=O)COc2ccc(S(=O)(=O)N3CCCCC3)cc21)NCc1ccccc1Cl	0	-2	-3	16	-14	-4	4
Cc1cc(C)c(NC(=O)C2CCCN2CCOC(=O)c2ccccc2)c(C)c1 (centres undefined)	nt	nt	6	nt	3	-4	-28
O=[N+]([O-])c1ccc(-c2nc(NCC3CCCO3)c3ccccc3n2)cc1 (centres undefined)	nt	nt	-20	-7	0	nt	44*
Cc1cc(NC(=O)CSc2nnc(-c3ccccc3)o2)no1	nt	nt	8	nt	-49	-1	18
COc1ccc(NC(=O)Nc2ccc3c(c2)C(=O)N([C@H](C)CO)C[C@H](C)[C@H](CN(C)C(=O)CCC(F)(F)F)OCCCC[C@@H](C)O3)cc1	-1	1	-1	nt	-2	-2	7
Cc1ccn2c(=O)nc(SCC(=O)Nc3ccc4c(c3)OCCO4)nc2c1	-4	2	-5	nt	-4	nt	-2
c1ccc(-c2nc(CSc3n[nH]c(-c4cccs4)n3)cs2)cc1	1	-5	nt	5	nt	2	0
CCOC(=O)c1c(NC2OC(=O)c3c2ccc(OC)c3OC)sc(C(=O)OC(C)(C)C)c1C (centres undefined)	nt	nt	-71	nt	-178	nt	-18
O=C(N[C@@H]1CC[C@@H](CCn2cc(-c3ccccc3)nn2)O[C@@H]1CO)c1cnccn1	0	-3	-4&2	7	2&-11	-11	3&-4
O=C1NC2(CCCCCC2)C(=O)N1Cc1ccc(Cl)cc1Cl	-1	nt	1	5	-2	-3	7
O=[N+]([O-])c1ccc(Oc2cccc3cccnc23)c([N+](=O)[O-])c1	nt	nt	2	nt	-1	nt	2
C[C@H](CO)N1C[C@H](C)[C@H](CN(C)C(=O)NC2CCCCC2)OCCCC[C@H](C)Oc2ccc(NC(=O)C3CCCCC3)cc2C1=O	104*	-1	26	7	13	8	-21
COc1ccc(CCN(C)C(=O)c2cnc(C)cn2)cc1OC	-1	1	4	4	-18	11	15
O=C(c1ncn[nH]1)N1CCN(c2nc(-c3ccccc3)cs2)CC1	1	1	nt	6	nt	-11	nt
O=C(N/N=C/c1ccccn1)c1cc(-c2ccc3ccccc3c2)n[nH]1	nt	nt	-15	nt	3	nt	-3

Of the compounds above, these have an aryl methoxy group:
SMILES	Cneo AK release	PglD inh	LGR2 antag	C2C12 statin	PAX8 inh HTS	PGC1a acetyl inh	INS-1E GSIS act
COc1ccccc1NC(=O)C1=C(C)Nc2nnnn2C1c1cccc(Br)c1 (centres undefined)	1	-9	nt	9	nt	9	nt
COc1ccc(NC(=O)Nc2ccc3c(c2)C(=O)N([C@H](C)CO)C[C@H](C)[C@H](CN(C)C(=O)CCC(F)(F)F)OCCCC[C@@H](C)O3)cc1	-1	1	-1	nt	-2	-2	7
CCOC(=O)c1c(NC2OC(=O)c3c2ccc(OC)c3OC)sc(C(=O)OC(C)(C)C)c1C (centres undefined)	nt	nt	-71	nt	-178	nt	-18
COc1ccc(CCN(C)C(=O)c2cnc(C)cn2)cc1OC	-1	1	4	4	-18	11	15

One compound at a time, from the list above. Order of screens: Cneo AK release	PglD inh	LGR2 antag	C2C12 statin	PAX8 inh HTS	PGC1a acetyl inh	INS-1E GSIS act
Listed for `COc1ccccc1NC(=O)C1=C(C)Nc2nnnn2C1c1cccc(Br)c1` (centres undefined) : 1	-9	nt	9	nt	9	nt
Listed for `Nc1c(C(=O)CSc2n[nH]c(-c3ccccc3Br)n2)c(=O)[nH]c(=O)n1C1CC1` : 4	2	6	-6	-46	-4	3
Listed for `O=[N+]([O-])c1ccc(Oc2cccc3cccnc23)c([N+](=O)[O-])c1` : nt	nt	2	nt	-1	nt	2
Listed for `O=C1NC2(CCCCCC2)C(=O)N1Cc1ccc(Cl)cc1Cl` : -1	nt	1	5	-2	-3	7

More compounds:
SMILES	Cneo AK release	PglD inh	LGR2 antag	C2C12 statin	PAX8 inh HTS	PGC1a acetyl inh	INS-1E GSIS act
C[C@@H]1CN([C@@H](C)CO)C(=O)c2cccc(NC(=O)c3ccncc3)c2O[C@@H]1CN(C)Cc1ccc(-c2ccccc2)cc1	7&1	-5&0	-9&3	5&8	14	3&-7	-8
COc1ccc(NC(=O)Nc2ccc3c(c2)C(=O)N([C@@H](C)CO)C[C@@H](C)[C@@H](CN(C)C(=O)CCC(F)(F)F)OCCCC[C@H](C)O3)cc1	2	1	-2	nt	-14	17	9
Nc1ncc(-c2ccccc2)n1CC1CCCO1 (centres undefined)	0	-1	nt	2	nt	1	nt
NC(=O)C(c1ccc(Cl)cc1)c1ccc(Sc2ccccc2)nn1 (centres undefined)	-2	2	-11	21	nt	-11	-28
O=C(N/N=C/c1ccoc1)c1ccccc1F	0	3	-14	nt	-38	9	6
C[C@H]1CN([C@@H](C)CO)C(=O)c2cc(C#Cc3ccccn3)cnc2O[C@@H]1CN(C)Cc1ccccc1	0&-4	-5&2	9&12	10&5&19	-8	-12&-16&-9	7&9
CCn1nc(C(=O)NNS(=O)(=O)c2cc(/C=C/C(=O)O)cc(OC)c2OC)c2ccccc2c1=O	1	5	-13	2	-10	nt	7
Cc1cccc(NC(=O)c2ccc(N3CCOCC3)c([N+](=O)[O-])c2)n1	0	-4	-24	nt	-125	-2	20
CN(C)CCOC(c1ccccc1)c1ccccc1	1&0	-3&-2	22	6&3	-2&-1	6	0&16
O=C(CSc1ccc(-c2ccco2)nn1)N1CCCCC1	nt	nt	-18	nt	-41	-6	6
COCCn1c(SCC(=O)N2CCOCC2)nnc1-c1ccco1	-1	2	-10	1	1	7	10
CC(C)NC(=O)N1C[C@@H]2[C@H](c3ccccc31)[C@H](CO)N2Cc1ccccn1	-6	-4	0	4	4	-1	-2
CCNC(=O)Nc1ccc2c(c1)C(=O)N(C)[C@H]1CC[C@H](CC(=O)N[C@H](C)c3ccccc3)O[C@H]1CO2	3	1	-14	18	-27	nt	-5
N#Cc1ccc(/C=C/C(=O)c2ccco2)cc1	nt	nt	-47	nt	3	nt	-2
Cc1cccc(C)c1NC(=O)CSc1nnc(-c2ccco2)n1N	0	0	nt	4	nt	-4	nt
C[C@@H]1CCCCO[C@@H](CN(C)C(=O)NC2CCCCC2)[C@H](C)CN([C@@H](C)CO)C(=O)c2cc(NC(=O)C3CCCCC3)ccc2O1	0	0	-3	19	9	-5	-12
CC(C)NC(=O)N1[C@@H]2CNc3ccccc3[C@@H]2[C@@H]1CO	8	0	-8	-13	-18	0	-9
O=C(CSc1ncnc2c1cnn2-c1ccc(F)cc1)NC1CCCC1	-9	-2	-15	-27	21	nt	5
CCn1c(CNC(=O)COc2ccc(C(C)C)cc2)nnc1SCC(=O)Nc1ccccc1	-1	1	nt	11	nt	-12	nt
CN(C)CCN(C(=O)c1ccc(C(=O)c2ccccc2)cc1)c1nc2cc3c(cc2s1)OCCO3	3	-9	-9	3	nt	nt	2
COc1cc2c(cc1OC)-c1cc(N3CCCc4ccccc43)nc(=O)n1CC2	-1	5	-13	6	nt	-3	32
COc1cccc2sc3cc(NCc4ccc(C)o4)ccc3c(=O)c12	-3	2	-58	4	-68	-7	29
COCCNC(=O)C[C@H]1C[C@H]2c3cc(NC(=O)C4CCOCC4)ccc3O[C@H]2[C@@H](CO)O1	nt	nt	nt	nt	nt	nt	0
COc1cccc2cc(-c3nc4ccccc4[nH]3)c(=O)oc12	27	-4	27	11	-49	nt	1
CCOC(=O)c1ccc(-n2cccc2/C=C2\NC(=O)NC2=O)cc1	-1	0	-12	-11	10	6	-23

Shown as a hit in INS-1E GSIS act, among the entries above:
compound,PglD inh,LGR2 antag,PGC1a acetyl inh,INS-1E GSIS act
O=[N+]([O-])c1ccc(-c2nc(NCC3CCCO3)c3ccccc3n2)cc1 (centres undefined),nt,-20,nt,44*

Next section:
SMILES	Cneo AK release	PglD inh	LGR2 antag	C2C12 statin	PAX8 inh HTS	PGC1a acetyl inh	INS-1E GSIS act
COc1cccc(-c2ccc3c(c2)[C@H]2[C@H](CCN2S(=O)(=O)c2cn(C)cn2)[C@@H](CO)N3)c1	18	8	-2	7	-10	-21	3
O=C(Nc1ccccc1)N1CCCCN2[C@H](C1)[C@H](c1ccc(C#CC3CC3)cc1)[C@@H]2CO	108*	8	-7	nt	-7	10	-4
O=C(NN=Cc1ccccc1C(=O)O)c1ccc(NS(=O)(=O)c2cccs2)cc1	0	7	1	3	-18	nt	-5
O=C(C[C@H]1C[C@@H]2c3cc(NC(=O)NC4CCCCC4)ccc3O[C@@H]2[C@@H](CO)O1)NCc1ccccc1	0	2	-14	-4	12	5	11
CCOC(=O)CSc1nc(-c2ccccn2)ncc1OC	nt	nt	-13	nt	-65	3	3
COC1(NC(=O)c2ccccc2)C(C)=CC(=O)C=C1C	nt	nt	-14	2	-6	-5	8

Some of the entries above, set out differently:
Results follow in this order: Cneo AK release, PglD inh, LGR2 antag, C2C12 statin, PAX8 inh HTS, PGC1a acetyl inh, INS-1E GSIS act
- CN(C1CCCCC1)S(=O)(=O)c1cccc(C(=O)Nc2ccccn2)c1
 : 0, 1, -25, -8, -3, 1, -20
- CS(=O)(=O)c1ccc(C(=O)OCC(=O)NC(=O)Cc2ccccc2)cc1
 : nt, 4, 6, -11, -9, -2, 11
- Cc1cc(C)c2sc(N(CCCN(C)C)C(=O)c3ccc(Br)s3)nc2c1
 : 8, 2, 11, 7, 17, -15, -19
- O=C(Nc1ccccc1)N1CCCCN2[C@@H](CO)[C@@H](c3ccc(C#CC4CC4)cc3)[C@@H]2C1
 : 4, 8, -2, nt, -3, -10, -14

Compound activity (PubChem)

This is a subset. The share of hits here may be higher or lower than overall.
